Screens (PubChem)
Arbovirus inh: arbovirus infection inhibition; actives 0.37% (n = 200,000); arbovirus infection cell-based antiviral screen; AID 1251; inhibition, % at 10 µM;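 active = inhibition from about 30%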;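 note: bluetongue infection of BSR cells; cell survival read as ATP light after 72 h; 0% = infected wells without compound and 100% = uninfected wells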
Mtb betalactam: beta-lactam sensitization of Mtb H37Rv | M. tuberculosis H37Rv growth with meropenem, percent inhibition; hits of this screen are not shown here | inhibition, % at 25 µM | actives 0.27% (n = 330,000) | AID 434955;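 active = about 74% or more and at least 40 points above the plate without the antibiotic, then above 30% in a dose series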;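 note: growth measured after seven days incubation then overnight dye step; 0% = bacteria only wells and 100% = bacteria with antibiotic; twin plates without the antibiotic show which effects depend on it; some results filed as inactive read as strong as hits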
YopH PTP inh: inhibitors of Yersinia enterocolitica YopH tyrosine phosphatase; fluorescence Ex485/Em525; inhibition, %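 (about 10 µM by stock and volumes)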; actives 0.16% (n = 140,000); AID 898;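 active = inhibition of 50% or more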;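 note: controls were vehicle for no effect and minimum signal wells for full effect; inactives centre near -20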
Mtb H37Rv: M. tuberculosis H37Rv growth inhibitors, H37Rv strain (AID 1626); inhibition, % at 10 µM, or IC50 in µM where a hit was titrated; actives 0.95% (n = 220,000); M. tuberculosis H37Rv growth inhibition; higher % means a stronger effect;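 active = confirmed in a dose series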;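 note: bacteria incubated seven days before Alamar blue readout; 0% = bacteria only wells and 100% = bacteria with antibiotic wells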
RecA splice inh: blocks M. tuberculosis RecA intein splicing; inhibition, %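 (about 9 µM by stock and volumes)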; actives 0.75% (n = 290,000); cell-free RecA intein splicing, fluorescence; AID 2221; P9WHJ3; in the data active = inhibition above about 30%;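 note: 0% = vehicle wells and 100% = reference inhibitor control wells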
Target sequence (P9WHJ3 whole entry, looked up, canonical isoform): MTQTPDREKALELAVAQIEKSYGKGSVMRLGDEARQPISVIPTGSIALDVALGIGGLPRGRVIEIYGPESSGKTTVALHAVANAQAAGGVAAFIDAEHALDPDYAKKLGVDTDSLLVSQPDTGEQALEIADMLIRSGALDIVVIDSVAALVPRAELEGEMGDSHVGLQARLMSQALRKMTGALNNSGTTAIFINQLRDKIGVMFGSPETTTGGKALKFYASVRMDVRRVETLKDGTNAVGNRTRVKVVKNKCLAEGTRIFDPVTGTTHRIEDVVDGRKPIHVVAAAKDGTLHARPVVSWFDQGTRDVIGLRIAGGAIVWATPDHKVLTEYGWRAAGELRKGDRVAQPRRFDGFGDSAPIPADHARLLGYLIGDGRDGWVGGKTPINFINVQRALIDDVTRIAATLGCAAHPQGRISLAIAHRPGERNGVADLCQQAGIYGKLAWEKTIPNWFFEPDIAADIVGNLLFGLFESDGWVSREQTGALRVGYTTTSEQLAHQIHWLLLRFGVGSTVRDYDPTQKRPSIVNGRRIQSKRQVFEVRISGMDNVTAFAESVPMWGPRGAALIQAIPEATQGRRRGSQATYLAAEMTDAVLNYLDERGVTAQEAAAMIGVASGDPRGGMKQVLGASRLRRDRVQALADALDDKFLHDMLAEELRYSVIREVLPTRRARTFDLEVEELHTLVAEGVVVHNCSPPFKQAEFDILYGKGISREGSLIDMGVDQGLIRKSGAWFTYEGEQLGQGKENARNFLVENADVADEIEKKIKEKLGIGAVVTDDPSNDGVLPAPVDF
Arbovirus inh repeat: second read-out of Arbovirus inh, no call of its own (marks repeat the call); inhibition, %; measured here: 10K subset replicate screen; many hits read low in the repeat;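 first of two repeat runs on a subset; 0% = infected and 100% = uninfected wells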
* marks the source's active call; other numbers are inactive results; nt = not tested or not shown. This is a subset (hit frequency here may not be typical).

SMILES | Arbovirus inh | Mtb betalactam | YopH PTP inh | Mtb H37Rv | RecA splice inh | others
Cc1ccc2cc(CCNC(=O)CC(C)(C)C)c(=O)[nH]c2c1C | 6.2 | 9.7 | -24.9 | 1.5% | 0.9
CCc1ccccc1N1C(=O)CC(=O)NC1=O | -1.0 | 11.8 | nt | nt | -0.8
C/C(=N\NC(=O)Cc1ccc(Cl)cc1)c1cccc(NC(=O)c2cccnc2)c1 | nt | 1.9 | nt | nt | -1.6
O=C(Cn1c(=O)oc2cc(S(=O)(=O)N3CCCC3)ccc21)NCc1ccccn1 | 1.8 | -2.9 | -10.7 | 0.3% | -1.8 | Arbovirus inh repeat=2.8
O=C(NCCNc1ccc(Cl)cc1[N+](=O)[O-])c1ccccc1F | nt | -9.7 | nt | nt | -0.5
CC(C)CCNC(=O)C1CCCN(S(=O)(=O)c2ccc3c(c2)CC(C)N3C(=O)C2CC2)C1 (centres undefined) | nt | -2.9 | nt | nt | 1.8
COc1ccccc1N(CC(=O)NCc1ccc(F)cc1)C(=O)CCC(=O)Nc1ccccn1 | -5.2 | 1.1 | nt | -7.7% | -1.0
CCc1ccc(NC(=O)C(=O)NCC2CCCN2S(=O)(=O)c2cccs2)cc1 (centres undefined) | nt | -10.0 | nt | nt | -0.5
CCOc1ccccc1NC(=O)CCN1CCN(S(=O)(=O)c2ccc(OC)cc2)CC1 | 8.7 | -2.0 | -44.8 | nt | 0.2
CN(CCCC(=O)N1CCCC(C(N)=O)C1)S(=O)(=O)c1ccc(F)cc1 (centres undefined) | nt | -0.9 | nt | nt | -0.4
Cc1cccc(COCC(Cc2ccccc2)N2CCN(C(=O)c3cc(Cl)cc(Cl)c3)CCC2=O)c1 (centres undefined) | -27.8 | -2.0 | -8.0 | -6.6% | 14.2
Cc1cccc(NC(=S)N(C)C2CCCCC2)c1 | -0.7 | 3.5 | nt | 5.5% | 2.1
CC1CCN(C(=O)COC(=O)c2ccccc2NC(=O)c2ccco2)CC1 | 2.4 | -13.4 | nt | -9.8% | 3.2
COC(=O)C(Cc1cnc(Cl)s1)(C(=O)OC)c1ccc(C(F)(F)F)cc1[N+](=O)[O-] | 3.6 | -9.4 | -6.1 | -4.7% | 5.7
CC(C)OCCCNc1ncnc2c1[nH]c1ccc(F)cc12 | -7.8 | 6.1 | -45.8 | -10.1% | -4.6
COc1ccc(C2N(c3ccccn3)C(=O)C3CCCN32)c(OC)c1 (centres undefined) | -1.4 | -9.1 | -49.7 | 0.6% | -2.6
Cc1sc2nc(CSc3ncn[nH]3)[nH]c(=O)c2c1C | 11.6 | 17.4 | nt | 2.2% | -3.2
CCc1cc(=O)oc2cc(OCC(=O)NCCN3CCOCC3)c(Cl)cc12 | nt | 5.6 | nt | nt | -2.3
O=C(Nc1ccc(C(=O)O)cc1)/C(=C\c1ccco1)NC(=O)c1ccccc1 | -0.5 | 3.2 | nt | -3.9% | -1.2
CC(C)Cc1nc(S(=O)(=O)c2ccc(Cl)cc2)c(N2CCOCC2)o1 | -1.7 | -7.0 | -12.3 | -14.5% | 0.9
COc1ccc(CNC(=O)C2CCCC2)cc1 | nt | -0.1 | nt | nt | -0.5
O=C(O)c1ccc(/C=N/Nc2ccc(S(=O)(=O)N3CCCC3)cc2[N+](=O)[O-])cc1 | nt | -0.4 | nt | -5.8% | nt
CN(C)S(=O)(=O)n1ccnc1 | 2.6 | -3.6 | -15.9 | -1.9% | -1.7
CC(=O)c1ccc(OCC(O)CN2CCN(c3ccc(F)cc3)CC2)cc1 (centres undefined) | nt | -3.4 | nt | nt | 2.3
O=C(CC1SC(=NCc2ccccc2)NC1=O)Nc1ccccc1 (centres undefined) | -7.0 | -3.8 | -14.0 | 1.0% | 3.2
O=C(CCc1ccccc1)Nc1cc(C(F)(F)F)ccc1Cl | -0.3 | -2.0 | -34.5 | -3.1% | 4.1
CCOC(=O)c1cnc(-c2ccccc2)nc1N1CCOCC1 | 1.1 | -2.0 | nt | -3.8% | 0.9
CCOC(=O)N1CCC(NC(=O)c2ccc(CS(=O)(=O)c3ccccc3C)o2)CC1 | 10.5 | 2.0 | -46.1 | 8.2% | 1.1 | Arbovirus inh repeat=6.3
O=C(CCC(=O)c1cccs1)NC(c1ccccc1)c1ccccc1 | 2.8 | -3.0 | -14.1 | -2.0% | 1.4
O=C(O)CN1C(=O)/C(=C\c2cc(Br)ccc2OCc2ccc([N+](=O)[O-])cc2)SC1=S | nt | -1.9 | nt | nt | 13.5
c1ccc(-c2nnc(C(c3ccccc3)c3ccccc3)o2)cc1 | -5.5 | 5.4 | -28.8 | 0.5% | -2.1
N#Cc1cc2c(nc1SCc1ccc(Cl)cc1)CCCC2 | -3.7 | 1.9 | -24.6 | -8.0% | -1.0
O=C(NN1C(=O)C2C3C=CC(C4CC34)C2C1=O)c1ccc(Cl)cc1Cl (centres undefined) | 2.7 | -0.6 | -20.6 | -6.3% | -6.9
Cc1c(C(=O)N(C)c2cccc(Cl)c2)cnn1-c1ccccc1 | nt | -4.2 | nt | nt | 0.3
CC(=O)Nc1ccc(SCC(=O)Nc2ccccc2-c2ccccc2)cc1 | -0.8 | -3.1 | -22.7 | 3.7% | -1.1
CCOc1ccc(C(C)=O)cc1COc1ccc(C)nc1[N+](=O)[O-] | nt | 3.6 | nt | nt | -0.4
O=[N+]([O-])c1cc2cccnc2c2ncccc12 | nt | 95.2 | nt | 1.4µM* | nt
CCN(CC)S(=O)(=O)c1cc(C(=O)O)ccc1OC | nt | 0.3 | nt | 15.0% | 3.5
CC(C)(C)c1ccc(-c2noc(CCC(=O)NCc3ccco3)n2)cc1 | 8.4 | 1.6 | nt | 6.8% | 2.6
O=C(CCCc1ccccc1)NCc1ccccc1Cl | nt | -3.9 | nt | nt | 2.4
CCOCCC(=O)Nc1cc(Cl)ccc1OC | -9.3 | -0.6 | -6.6 | 0.2% | 1.3
Cc1ccc2nc(NS(C)(=O)=O)sc2c1 | 2.0 | -3.6 | nt | -2.2% | -1.3
CC(C)COC(=O)C1[C@H]2C(=O)N(Cc3cccs3)C[C@]23C=C[C@H]1O3 (some centres undefined) | 8.8 | -5.5 | -18.4 | -6.2% | 1.8
Cc1ccc(CCNC(=O)Cn2cccc2)cc1 | 3.3 | -8.2 | -10.5 | 0.0% | -2.8
COCCN1C(=O)N[C@@H](CCc2ccccc2)C(C(C)=O)=C1C | 8.2 | -2.3 | -29.6 | 4.4% | 0.0
CCOC(=O)N1CCN(C(=O)CSc2ccc(-c3ccc(OC)cc3)nn2)CC1 | 1.2 | -0.9 | nt | 0.8% | -19.1
CCOC(=O)c1cc(C)sc1NC(=O)CN1CCN(C(=O)C2CCCO2)CC1 (centres undefined) | nt | 2.1 | nt | nt | 1.5
COc1ccc2c(c1)C(=O)Nc1cc(Cl)ccc1N2 | nt | 5.1 | nt | nt | 2.3
CCN1CCc2nc(NC(=O)CC(c3ccccc3)c3ccccc3)sc2C1 | -2.3 | -11.9 | -17.9 | -5.6% | -9.5
CCOc1ccccc1N1CCN(C(=O)COc2ccc3c(C)cc(=O)oc3c2)CC1 | -1.1 | 23.7 | nt | 16.6% | 0.2
Cc1csc(NC(=O)C2COc3ccccc3O2)n1 (centres undefined) | -6.1 | -8.3 | -37.3 | 3.3% | 1.5
Cc1ccc(CSc2nnc(-c3ccccc3N)c(=O)[nH]2)cc1 | 8.8 | 83.3 | -22.9 | 13.2% | -2.0
CC(=O)NS(=O)(=O)c1ccc2sc(C)nc2c1 | nt | -3.4 | nt | -1.9% | 4.0
CC(C)C1Nc2ccc(C(=O)N3CCN(c4ccccn4)CC3)cc2NC1=O (centres undefined) | nt | -4.4 | nt | nt | -1.8
O=c1[nH]nc(SCc2cc(Cl)ccc2Cl)c(=O)[nH]1 | nt | -8.3 | nt | -8.1% | -1.6
CCn1cc(S(=O)(=O)CC(=O)Nc2cc(C)on2)c2ccccc21 | -10.2 | -3.9 | -1.3 | 0.0% | 3.1
CCCCNC(=O)c1ccccc1SCc1c(C)noc1C | nt | -17.0 | nt | nt | -0.9
Cc1ccc(NC(=O)CSC(N)=O)cc1Cl | 4.0 | -3.5 | -38.1 | 33.2% | 8.1
c1cc2c(cc1CN1CCOCC1)OCO2 | 10.2 | 8.9 | -15.5 | -9.3% | -1.3
Cn1c(CCNC(=O)c2ccccc2)nc2cc(NC(=O)c3ccco3)ccc21 | -1.3 | -9.3 | -50.0 | 4.9% | -0.1

Molecules from the list above that have fluorine (7):
SMILES | Arbovirus inh | Mtb betalactam | YopH PTP inh | Mtb H37Rv | RecA splice inh | others
O=C(NCCNc1ccc(Cl)cc1[N+](=O)[O-])c1ccccc1F | nt | -9.7 | nt | nt | -0.5
COc1ccccc1N(CC(=O)NCc1ccc(F)cc1)C(=O)CCC(=O)Nc1ccccn1 | -5.2 | 1.1 | nt | -7.7% | -1.0
CN(CCCC(=O)N1CCCC(C(N)=O)C1)S(=O)(=O)c1ccc(F)cc1 (centres undefined) | nt | -0.9 | nt | nt | -0.4
COC(=O)C(Cc1cnc(Cl)s1)(C(=O)OC)c1ccc(C(F)(F)F)cc1[N+](=O)[O-] | 3.6 | -9.4 | -6.1 | -4.7% | 5.7
CC(C)OCCCNc1ncnc2c1[nH]c1ccc(F)cc12 | -7.8 | 6.1 | -45.8 | -10.1% | -4.6
CC(=O)c1ccc(OCC(O)CN2CCN(c3ccc(F)cc3)CC2)cc1 (centres undefined) | nt | -3.4 | nt | nt | 2.3
O=C(CCc1ccccc1)Nc1cc(C(F)(F)F)ccc1Cl | -0.3 | -2.0 | -34.5 | -3.1% | 4.1

Continued.
SMILES | Arbovirus inh | Mtb betalactam | YopH PTP inh | Mtb H37Rv | RecA splice inh | others
O=C(N/N=C/c1ccc(Br)cc1)c1cc[n+]([O-])cc1 | nt | 0.4 | nt | nt | -2.5
NC(=O)c1ccc(C(F)(F)F)cn1 | -1.3 | 4.2 | nt | 3.9% | 1.8
Cn1ccsc1=NC(=O)c1ccc(S(C)(=O)=O)c([N+](=O)[O-])c1 | nt | 6.0 | nt | nt | 3.1
CCCCNC(=O)CSc1nc2cc3c(cc2c(=O)n1Cc1ccco1)OCO3 | 10.9 | -6.5 | nt | 4.7% | 0.0
CC(C)CNC(=O)NC(=O)CSc1nc2ccccc2n1CC(C)C | 5.1 | 8.6 | -11.4 | 7.6% | 1.8
CN1CCN(Cc2nc3c(c(=O)[nH]c(=O)n3C)n2CCc2ccccc2)CC1 | 3.2 | 2.0 | -20.8 | 3.6% | -0.9 | Arbovirus inh repeat=4.2
COCCn1c(=O)[nH]c2cc(C(=O)NCc3cccnc3)ccc2c1=O | -1.1 | 4.8 | -29.9 | -9.7% | 0.0
Oc1[nH]c2ccccc2c1C1=NCCCCC1 | -6.9 | -11.3 | nt | 9.8% | -1.9
CCOC(=O)N1CCN(C(=S)NCCOC)CC1 | -0.7 | -1.6 | -6.5 | -5.3% | 0.6
O=C(NN1C(=O)/C(=C/c2cccs2)SC1=S)c1ccccc1 | -18.4 | 1.8 | -17.5 | -12.2% | 4.7
O=C(CSc1ccccc1)NCCCN1CCOCC1 | 3.6 | -2.7 | -43.0 | -9.5% | 1.7
C=CC(O)Cc1c(C)n[nH]c1C (centres undefined) | 1.2 | nt | -12.2 | -6.9% | 1.1
Clc1cccc(Cl)c1OCCCCN1CCCCC1 | nt | 3.8 | nt | nt | -4.3
CCOc1ccccc1-c1cc(C(=O)N/N=C(\C)c2cccnc2)c2ccccc2n1 | nt | 1.2 | nt | nt | -1.2
COc1cc(S(N)(=O)=O)c(OC)cc1N | nt | -2.6 | nt | -5.4% | -0.5
C/C(=N/NC(=O)c1ccn(C)n1)c1ccncc1 | nt | -9.3 | nt | -5.2% | -0.2
O=C(CCN1C(=O)c2ccccc2C1=O)Nc1sc2c(c1C(=O)NCC1CCCO1)CCC2 (centres undefined) | 3.1 | -2.7 | -14.2 | -6.4% | 0.3
S=c1[nH]nc(-c2ccccc2)n1/N=C/c1c[nH]c2ccccc12 | -22.8 | 2.8 | -19.3 | 1.7% | 1.3
CCOC(=O)N1CCN(C(=O)CN(CC)S(=O)(=O)c2cc(C)ccc2OC)CC1 | nt | 4.7 | nt | nt | -0.1
O=c1cc(CN2CCN(c3ccc(O)cc3)CC2)nc2scc(-c3ccccc3)n12 | -2.5 | -17.4 | nt | 3.5% | -1.3
CNc1n[nH]c(=S)s1 | nt | -3.5 | nt | -7.9% | -0.8
COc1ccc(-c2nc(=S)[nH][nH]2)cc1 | 0.8 | -2.1 | -27.1 | 1.5% | -1.3 | Arbovirus inh repeat=-0.8
CCC(c1nnc(SCC(=O)N2CC(=O)Nc3ccccc32)n1Cc1ccccc1)N(C)C (centres undefined) | 2.2 | -15.9 | 5.5 | 12.2% | -8.1
CC1(C)CC(N(CCc2ccccc2)Cc2ccccc2)CCO1 (centres undefined) | nt | 4.1 | nt | 7.0% | 0.7
